Screens (PubChem)
Ab BasE inh: blocks the Acinetobacter baumannii siderophore enzyme BasE; purified BasE, fluorescence polarization binding displacement; inhibition, % (test concentration not listed); hit rate 0.1% among 84,000; AID 485350;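 active = both replicates above 25% with normal brightness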;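 note: 0% = negative plate control signal and 100% = positive plate control signal; stock transfer was 100 nL into about 30 µL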
KSHV LANA nucl: inhibitors of KSHV LANA binding to nucleosomes | FITC-LANA1-23 / chicken nucleosome fluorescence polarization; stronger effect = lower value | z-score (test concentration not listed) | hit rate 0.3% among 51,000;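 active = both repeat wells score below -2 in polarization z-score versus plate sample wells, excluding overly bright wells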;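 note: 100 nL library stock added to about 30 µL; numbers are from one replicate; some results filed as inactive read as strong as hits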
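Test system: purified chicken nucleosomes with FITC-labelled LANA N-terminal peptide (1-23); Input: 240 nM purified chicken nucleosomes (480 nM peptide binding sites), final; Medium: TEN-BT buffer, pH 7.5; Timing: 10–45 min, room temperature; Technique: fluorescence polarization, 480 nm excitation, 535 nm parallel and perpendicular emission; Replication: duplicates.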
The depositor's hits bear a star; . = no result given; & = joins results of further samples. This is a subset. The share of hits here may be higher or lower than overall.

smiles	Ab BasE inh	KSHV LANA nucl
CC(Sc1cccc(C(F)(F)F)c1)C(=O)NC(N)=O (stereo not given)	2.1	.
COc1ccc(S(=O)(=O)N2CCCC2C(=O)n2nc(C)cc2C)cc1 (stereo not given)	0.2	.
O=C(CN1CC(C(=O)N2CCOCC2)Oc2ccccc21)Nc1ccc2c(c1)CCC2 (stereo not given)	1.7	.
Nc1nc(SCCSc2ccc(F)cc2)n[nH]1	-0.4	.
O=C(NCCc1ccccn1)c1cc(C(=O)C2CCCCC2)c[nH]1	.	0.365
O=C(CN1C(=O)c2ccccc2S1(=O)=O)NCc1ccncc1	0.2	-0.184
Oc1ccccc1N=Cc1ccccc1	0.1	-0.228
O=C(C1CCCC1)N1CCCC1c1nc2ccccc2s1 (stereo not given)	0.1	.
NCCSC1CC(=O)N(c2ccc(Cl)cc2)C1=O (stereo not given)	0.1	0.329
CC(C)C(=O)Nc1cc(Cl)cc(Cl)c1	.	0.424
FC(F)Oc1ccc(/C=N/n2cnnc2)c(OC(F)F)c1	-0.3	.
O=C(NCC1(N2CCCCC2)CCCCC1)c1ccc(N2CCCC2=O)cc1	0.2	.
CC12CCC(C/C1=N\Nc1nc(O)c(C3=c4ccccc4=NC3=O)s1)C2(C)C (stereo not given)	1.5	0.593
CC(C)C(Sc1ccc2c(c1)OCCO2)C(=O)NC(N)=O (stereo not given)	-5.0	.
COC(=O)C1(c2ccccc2)NC(c2cccs2)C2C(=O)N(C)C(=O)C21 (stereo not given)	0.2	0.479
CN(C)c1ccc(C(=O)NCc2cc(Cl)c3c(c2)OCCCO3)cc1	-3.3	.
O=C(/C=C/c1ccc2c(c1)OCCO2)NCc1ccco1	-0.1	.
Clc1cc(N2CCOCC2)ncn1	-2.1	2.22
Cc1ccc2[nH]c(=O)c(CNc3ccc(N4CCN(C)CC4)cc3)cc2c1	-0.3	1.39
CCn1nnc2cc(C(=O)N(C)Cc3ccc(-c4ccc(Cl)cc4)o3)ccc21	-0.7	.
N#CCCNS(=O)(=O)c1ccc(C(=O)NCC23CC4CC(CC(C4)C2)C3)cc1	1.3	.
CCOc1ncccc1C(=O)Nc1ccc2c(c1)OCCO2	1.9	.
COC(=O)CN(n1cnnc1)S(=O)(=O)c1ccc(C)cc1	0.8	0.954
CCSc1nc2sc3c(c2c(=O)n1CCc1ccccc1)CCC3	1.3	.
CC(C)c1cc2cc3ccc(=O)oc3cc2o1	-1.9	0.49
Cc1cccc(C(=O)NC(=NCCc2cnc[nH]2)Nc2nc(C)cc(C)n2)c1	1.8	-1.31
O=C(CCCN1CCOCC1)c1ccc2c(c1)OCCO2	2.0	-0.874
COc1cccc(Cl)c1NC(=O)N1CCN(c2cc(C)nc3ccccc23)CC1	1.1	.
CC(=O)OCC(=O)c1ccc(NC(=O)c2ccccc2)cc1	-2.3	0.0935
Nn1c(COc2cccc(Br)c2)nnc1SCC(=O)N(C1CCCC1)C1CCS(=O)(=O)C1 (stereo not given)	2.9	.
CC(C)(C)Sc1ccc(SC#N)s1	-1.4	-0.263
O=c1c2c([nH]c(=S)n1-c1ccc(F)cc1)CCS2	-1.8	2.88
CC(C)n1nc(C(=O)Nc2ccccc2N2CCOCC2)c2ccccc2c1=O	0.5	.
COc1ccc(Cl)cc1-n1c(C)cc(C(=O)OCC#N)c1C	1.9	.
O=C(CSc1nc(-c2ccco2)nc2cc(=O)[nH]n12)Nc1ccccc1	0.1	-0.291
Cc1ccc(Sc2c(C)n[nH]c2C)cc1	0.7	0.435
CC(=O)OC[C@H]1O[C@@H](n2ncc(=O)[nH]c2=O)[C@H](OC(C)=O)C1OC(C)=O (stereo not given in full)	2.0	-0.248
O=C1CS/C(=N/C(=O)NC2CCCCC2)N1	-1.2	.
O=C(COc1ccccc1)Nc1nncs1	5.5	-0.881
O=C(COC(=O)c1ccc(O)cc1)Nc1cccc(I)c1	0.9	.
S=c1n(CN2CCOCC2)c2ccccc2n1-c1ccccc1	1.4	.
CCCn1c(SCc2nc(-c3ccc(OCC)cc3)no2)nnc1-c1ccc(Cl)cc1	-1.7	1.56
Cc1cc(NS(=O)(=O)c2ccc(NS(C)(=O)=O)cc2)no1	-1.4	.
COc1ccc(/C=C2\SC(N)=NC2=O)cc1OC	4.0	-1.43
CC(=O)OCc1cc(=O)n2ccsc2n1	0.7	-1.57
Cc1ccc(C2CC(c3ccc(F)cc3)n3ncnc3N2C(=O)C2CC2)cc1 (stereo not given)	0.7	-0.0465
COc1ccccc1NC(=O)c1cc2ccccc2c(C=Nc2ccc(NC(C)=O)cc2)c1O	0.7	.
O=C(CSc1nnc(COc2cccc3cccnc23)o1)N1c2ccccc2CCc2ccccc21	-0.6	0.477
CCOc1ccccc1/C=N\N1CCN(c2ccccc2)CC1	3.3	0.302
Cc1ccn2cc(C(=O)OC(C)c3nnc(-c4cccs4)o3)nc2c1 (stereo not given)	3.7	.
COc1ccc2c(c1OC)C(=O)N(c1cccc(Cl)c1)C2=O	2.6	0.058
CCOC(=O)c1c(N)n(C(C)CC)c2nc3ccccc3nc12 (stereo not given)	-0.1	.
Cc1c(C)c(C)c(C(=O)c2ccccc2C(=O)NCc2cccnc2)c(C)c1C	3.8	.
O=C(CCCN1C(=O)c2cccnc2Oc2ccc(Cl)cc21)N1CCCCC1	0.7	-0.979
CCCCNC(=O)c1nn(-c2ccc(OC)cc2)c(=O)c2ccccc12	0.3	-0.157
CCCc1n[nH]c(=O)c2c1nnn2Cc1ccccc1F	0.2	-0.397
O=c1nc(-c2ccccc2)c2cc(Cl)ccc2[nH]1	3.4	.
CC(=O)OC1COC(Oc2ccc(C(C)(C)C)cc2)C(OC(C)=O)C1OC(C)=O (stereo not given)	1.9	0.18
Cc1c(C)c(C)c(C#CCOC2CCCCO2)c(C)c1C (stereo not given)	1.6	.
COc1ccc(NC2CCN(C3CC(=O)N(c4ccc(Cl)cc4)C3=O)CC2)cc1 (stereo not given)	-1.9	0.0915

Grouped by structure, the entries above with fluorine
smiles	Ab BasE inh	KSHV LANA nucl
CC(Sc1cccc(C(F)(F)F)c1)C(=O)NC(N)=O (stereo not given)	2.1	.
Nc1nc(SCCSc2ccc(F)cc2)n[nH]1	-0.4	.
FC(F)Oc1ccc(/C=N/n2cnnc2)c(OC(F)F)c1	-0.3	.
O=c1c2c([nH]c(=S)n1-c1ccc(F)cc1)CCS2	-1.8	2.88
Cc1ccc(C2CC(c3ccc(F)cc3)n3ncnc3N2C(=O)C2CC2)cc1 (stereo not given)	0.7	-0.0465
CCCc1n[nH]c(=O)c2c1nnn2Cc1ccccc1F	0.2	-0.397

(list continues)
smiles	Ab BasE inh	KSHV LANA nucl
NS(=O)(=O)c1ccc(NC(=O)/C=C/C(=O)O)cc1	-4.4	1.88
Cc1cc(OC(C)C(=O)N2CCN(Cc3ccccc3)CC2)nc(C(C)C)n1 (stereo not given)	-1.5	.
O=C(O)CCN1C(=O)CSc2ccccc21	0.3	.
COC(=O)C1=C(C)NC(C)=C(C(=O)OC)C1c1ccc(C(C)C)cc1	-0.7	.
O=C(O)C1(NS(=O)(=O)c2ccc(Cl)cc2)CCCCC1	0.2	.
CCc1ccc(NC2=NS(=O)(=O)c3ccccc32)cc1	1.7	-0.0475
O=C(Cn1c2c(c(-c3ccccc3Cl)cc1=O)CCC2)NC1CCCC1	4.1	-0.823
O=C(Cc1n[nH]c(=O)c2ccccc12)OCCOc1cccc(Cl)c1	0.2	.
COc1cc(-c2nnc(COC(=O)CSc3ccc4ccccc4c3)o2)cc(OC)c1OC	2.2	.
Cc1cccc(N(C)c2nc3ccc(Cl)cc3n3cnnc23)c1	-2.6	-0.962
COc1cccc(CN(C)C(=O)COC(=O)c2cc(C)cc(C)c2)c1	-3.9	.
CC(=O)Nc1ccc(C(=O)CN2C(=O)NC(C)(c3ccc4c(c3)OCCO4)C2=O)c(F)c1 (stereo not given)	1.0	.
CCOc1cc(CNS(=O)(=O)c2ccc3c(c2)CCCC(=O)N3)cc(OCC)c1OCC	-1.9	1.6
CC(C)(C)C(=O)/C=C/Nc1ccccc1C(N)=O	3.6	0.467
O=C1c2ccccc2CCc2sccc21	0.3	0.996
CCOC(=O)C1=C(C)NC2=C(C(=O)C(C(=O)OCC)C(c3ccco3)C2)C1c1ccc2c(c1)OCO2 (stereo not given)	-1.5	0.232
CCOc1ccc(-c2cc(NC(=O)Cn3ncc4c(=O)oc5ccc(C)cc5c43)on2)cc1	0.1	-0.515
CC1(C)OC(C)(C)/C(=C\c2ccc(F)cc2)C1=O	-1.9	-1.02
CCc1ccc(NC(=O)NC2CCN(C(C)C)CC2)cc1	1.4	-0.923
CN(C(=O)c1cccc(S(=O)(=O)N(C)C)c1)c1ccccc1	-2.2	0.124
Cn1c(SCc2ccccc2Cl)nnc1C(O)C(O)c1nnc(SCc2ccccc2Cl)n1C (stereo not given)	3.5	0.66
O=C(c1ccc(N2CCOCC2)nc1)N1CCCCCC1	-0.1	.
CS(=O)(=O)c1cccc(S(=O)(=O)NCc2ccco2)c1	2.0	-0.213
Cc1c(C(=O)NCCc2ccccc2)oc2ccccc12	-1.7	-0.959
CN(C)CCN(Cc1ccccc1)Cc1ccc(O)cc1	1.1	-0.467
COc1ccc(C(=O)CSc2nccn2C)cc1	4.2	.
CCCCN1Cc2c(n(CC(=O)OCC)c3cc(-c4ccccc4)nn3c2=O)C1=O	-0.8	-0.15
COc1ccc(N=C2CCCN2CC(N)=O)cc1	-1.0	.
O=C(O)CN1CC(=O)Oc2ccccc21	-0.8	1.81
CCCn1c2ccccc2c2cnn(CC(=O)N3CCCc4ccccc43)c(=O)c21	-1.9	0.608
O=C(CSc1ccccc1)OCc1nnc(C2COc3ccccc3O2)o1 (stereo not given)	1.8	.
O=C(N/N=C/c1ccc(O)c(O)c1O)c1cccc(S(=O)(=O)Nc2ccccc2Cl)c1	8.8	.
Cc1ccc(CNC(=O)c2ccc3c(c2)NC(=O)CS3)n1C	-0.8	.
CCCN(CCC)C1=CC(=O)C(C(C)(C)C)=CC1=O	-1.0	-0.259
C/C(=N\NC(N)=S)c1cccnc1	-0.7	0.0705
N#Cc1oc2ccccc2c1N	0.5	.
Cn1c(=O)c2c(-c3ccccc3Br)n(CC(N)=O)cc2n(C)c1=O	-0.1	0.639
O=S(=O)(NC1=NCCCCC1)c1ccc(F)cc1	1.1	.
CC(C)NC(=S)NC(=O)c1cccnc1	-0.8	0.827
COc1ccc(N2CCN(Cc3nnnn3C3CCCCC3)CC2)cc1	-0.4	-0.548
Cc1n[nH]c(C)c1Sc1nccc(-c2cccnc2)n1	-0.9	.
Cc1sc(NC(=O)C2CCCCC2)c(C(N)=O)c1C	-1.1	0.862
O=C1NCC(COc2ccc3ccccc3c2)O1 (stereo not given)	-6.3	1.16
COC(=O)c1ccc(N(C=O)C(=S)SC)cc1	-4.1	.
Cc1ccc(CCNS(=O)(=O)c2c(C)nc3sccn3c2=O)cc1	-0.7	-0.0625
O=C(COC(=O)/C=C/c1ccco1)Nc1cc(-c2ccccc2)nn1-c1ccccc1	1.3	.
O=C(COC(=O)Cc1cn2ccsc2n1)Nc1ccc(Br)cc1	0.0	.
CC(=O)N(C)Cc1nc2ccccc2n1C	0.9	-0.784
CC(C)NC(=O)COc1ccc(S(=O)(=O)N2CCCC2)cc1	1.0	-1.19
COCCn1c(Sc2ncnc3sccc23)nc2ccccc21	-2.5	.
Cc1cc2nc(-c3ccc(SCC#N)nc3)[nH]c2cc1C	-3.0	0.61
O=c1ccc(C(F)(F)F)cn1Cc1cc2c(cc1Br)OCO2	-0.2	.
Nc1c2c(nc3ccccc13)CCCC2	-4.9	-0.455&0.028&0.163&0.76
O=C(COC(=O)C1CCN(S(=O)(=O)c2ccc3c(c2)OCCO3)CC1)c1c[nH]c2ccccc12	-0.2	.
CCCCSc1nnc(-c2ccc3[nH]c(C)c(C)c3c2)o1	-0.4	1.11
O=C1CSC2(C(=O)Nc3ccccc32)N1c1ccccc1 (stereo not given)	-3.3	.
COc1ccccc1C(=O)Nc1ccc(-c2nc3ccccc3o2)cc1	0.6	-0.166
COCCn1c(O)c(/C=N/c2c(C#N)c(C)c(C)n2C2CCCCC2)c(=O)[nH]c1=S	-26.6	.
Nc1cccc(Nc2ncnc3ccccc23)c1	0.5	.
CC(=O)n1c(=O)oc2cc(Cl)ccc21	0.7	-0.524

Carrying on:
smiles	Ab BasE inh	KSHV LANA nucl
Cc1ccccc1NC(=O)N1CCC(C(N)=O)CC1	2.0	0.171
CC(=O)NCC(c1ccco1)N1CCN(c2ccccc2)CC1 (stereo not given)	-3.3	1.5
COc1ccc(CNC2C3CC4CC(C3)CC2C4)c(OC)c1C (stereo not given)	-3.2	.
CC(=O)Oc1ccc(C)cc1NC(=O)CC1SC(=Nc2ccc(F)cc2)N(C)C1=O (stereo not given)	-0.6	-0.441
CCc1ccccc1NC(=O)Cn1cc2c(n1)CCCC2	0.7	-0.789
CCCn1c(=O)c2ccccc2n2c(SCC(=O)NC(C)(C)C)nnc12	1.3	.
